CtBP-E1A inh = CtBP/E1A binding inhibition. AlphaScreen GST-E1A/His-CtBP binding, 1536-well; hits give low values; control for the full effect not named in the record. activity change, % (test concentration not listed). hit rate 0.49% among 340,000. AID 651724; in the data active means activity change below about -65%; inconclusive means about -30% to -65%; inactive means above about -30%; further: on the % scale 0 is the no-effect control and ±100 the full control effect; compound concentration not given in the record
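Protein mix (5X: 125 nM each GST-E1A, His-CtBP) was incubated with pinned compound 2 h at 37 deg C in dark, in 50 mM Tris pH 8.0 buffer with 300 mM NaCl. Glutathione donor and nickel acceptor beads followed; AlphaScreen signal read after 1 h.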
PINK1 expr mod = modulators of PINK1 expression; Potency, µM (top dose mostly 76.6 µM), for inactives: top-dose activation (PINK1 increase), actives largely listed as activators; PINK1 immunofluorescence, high-content cytometry, 24 h; hit rate 0.2% among 410,000; active = well fitted activation curve with a large enough effect; inconclusive = small, poorly fitted or top-dose-only effect; inactive = flat fitted curve, though single readings scatter; cell line not stated here;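 further: potency means the concentration at half of the fitted maximal effect; % of control where 0% means no effect; nearly all actives have a fitted effect of over 65% in size; a mitochondrial uncoupler was the plate control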
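PINK1 protein level read as immunofluorescence by microplate cytometer in a fixed, stained stable cell line after 24 h exposure to five compound concentrations, with CCCP as control.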
TRPML1 ag = activates the human TRPML1 channel; Q9GZU1; activation, % (concentration not given with the values); hit rate 0.12% among 410,000; TRPML1-expressing cells, Ca2+ dye fluorescence, FDSS; host cell line not named in the record; reference of the full effect not given here; in the data active = activation above about 50%; inconclusive = about 30% to 50%; inactive = below about 30%; further: 0% is about no effect; the text of the record puts the active cut at 80%
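Cells: TRPML1-DL, 1X Tet inducer, ~16 h at 37 degrees C/5% CO2. Dye: ABD Ca8 no-wash + quencher, 45-90 min RT. Read: 10 s baseline, compound add, 110 s agonist phase; 54-4 EC80 (4uM final), 110 s antagonist phase.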
D2 ag = activates the human D2 dopamine receptor. activation, % (test concentration not listed). DiscoveRx PathHunter D2 beta-arrestin, luminescence, 90 min; 100% = 57 uM dopamine signal. hit rate 0.084% among 360,000. P14416; in the data active = activation above about 40%; inconclusive = about 15% to 40%; inactive = below about 15%; further: compound concentration not given in the record; the text of the record calls up to 30% inactive
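DiscoveRx PathHunter D2 beta-arrestin cells (2,100/well) attached overnight, then compound-stimulated 90 min at 37 C in HBSS/10 mM HEPES/0.1% Tween-20 buffer; beta-galactosidase complementation read by luminescence after 1 h at ambient temperature. Dopamine 57 uM final (EC100) as control.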
Six1-Eya2 blk = Six1/Eya2 interaction inhibition. activity change, % (concentration not given with the values). hit rate 0.56% among 360,000. AlphaScreen GST-Six1/His-Eya2 binding, biochemical; hits give low values; control for the full effect not named in the record. AID 651725; in the data active = activity change below about -65%; inconclusive = about -30% to -65%; inactive = above about -30%; further: on the % scale 0 is the no-effect control and ±100 the full control effect
Target sequence (O00167 whole entry, looked up): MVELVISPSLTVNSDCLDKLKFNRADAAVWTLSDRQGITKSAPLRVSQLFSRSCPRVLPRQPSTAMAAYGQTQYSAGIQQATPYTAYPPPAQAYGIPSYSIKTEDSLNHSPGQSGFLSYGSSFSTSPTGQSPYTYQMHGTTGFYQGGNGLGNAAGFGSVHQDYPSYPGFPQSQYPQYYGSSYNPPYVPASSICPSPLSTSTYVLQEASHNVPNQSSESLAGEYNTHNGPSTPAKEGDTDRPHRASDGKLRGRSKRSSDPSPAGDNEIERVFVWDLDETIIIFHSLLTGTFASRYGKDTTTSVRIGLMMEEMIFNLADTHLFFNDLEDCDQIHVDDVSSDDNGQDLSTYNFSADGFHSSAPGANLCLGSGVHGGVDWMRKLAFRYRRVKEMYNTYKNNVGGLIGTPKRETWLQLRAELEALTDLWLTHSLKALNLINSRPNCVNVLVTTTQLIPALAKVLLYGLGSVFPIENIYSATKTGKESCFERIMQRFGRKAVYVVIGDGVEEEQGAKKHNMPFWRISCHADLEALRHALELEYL
Target sequence (Q15475 whole entry, looked up): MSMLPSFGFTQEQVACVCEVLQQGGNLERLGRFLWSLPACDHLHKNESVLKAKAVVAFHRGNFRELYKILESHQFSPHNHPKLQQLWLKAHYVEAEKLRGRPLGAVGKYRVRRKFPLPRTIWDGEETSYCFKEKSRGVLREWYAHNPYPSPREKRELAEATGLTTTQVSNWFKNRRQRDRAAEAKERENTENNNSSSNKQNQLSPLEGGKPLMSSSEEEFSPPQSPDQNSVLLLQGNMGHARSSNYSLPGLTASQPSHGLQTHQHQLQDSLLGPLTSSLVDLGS
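Compounds are tested against tagged Six1 and Eya2 proteins bridged by glutathione donor and nickel acceptor beads; after a one-hour incubation at 37 °C without light, AlphaScreen emission is recorded.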
TRPML1 blocker = inhibitors of human TRPML1 channel; Q9GZU1; TRPML1-inducible cells, Ca2+ dye fluorescence, FDSS; hits give low values; inhibition of EC80 agonist-evoked calcium signal; activity change, negative = inhibition, % (no concentration beside the values); hit rate 0.02% among 390,000; AID 624415; in the data active means activity change below about -50%; inconclusive means about -30% to -50%; inactive means above about -30%;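 further: stimulus is agonist 54-4 at its EC80 concentration; on the % scale 0 is the no-effect control and ±100 the full control effect; compound concentration not given in the record; the text of the record puts the active cut at -80%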
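TRPML1-DL cells, Tet-induced overnight (~16 h, 37 °C) at 1,500 cells/well, were loaded with Ca8 no-wash dye plus quencher for 45-90 min at room temperature. Compounds were pinned during FDSS kinetic reading; agonist 54-4 at EC80 (4 uM final) then added.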
An asterisk follows results filed as active; ? = inconclusive; nt = no result given; [ ] = remark or other dose.

SMILES | CtBP-E1A inh | PINK1 expr mod | TRPML1 ag | D2 ag | Six1-Eya2 blk | TRPML1 blocker
Cc1nc(N/N=C/c2ccc(O)cc2)c2cnn(-c3ccccc3)c2n1 | -75.6* | 7.8% | 2.5 | 4.5 | ? | -17.9
O=C(CSc1nnc(Cc2ccccc2)c(=O)[nH]1)Nc1ccccc1 | 7.3 | -0.6% | -0.6 | -2.7 | 2.7 | -6.2
NC(=O)C1=NOC(CNc2ncc(C(F)(F)F)cc2Cl)C1 (stereo not given) | -0.4 | 2.9% | -0.4 | -0.4 | 8.3 | 7.6
CCN(CC)S(=O)(=O)c1cccc(NC(=O)c2ccccc2Br)c1 | nt | 0.1% | 0.4 | -2.2 | 5.5 | 1.4
O=C(CN1CCC(n2nnc3cc(F)ccc32)CC1)N1CCCc2ccccc21 | 0.4 | 0.2% | 0.7 | -3.5 | -2.2 | 12.6
CC(C)CC(=O)Nc1c2c(nn1-c1ccc(F)cc1)CS(=O)C2 (stereo not given) | 2.5 | -1.3% | 0.1 | -6.2 | 5.3 | -6.3
Cc1ccc(NC(=O)CN(C)C(=O)Nc2ccc(C)cc2)cc1 | -4.1 | -1.0% | -0.5 | -4.2 | -2.6 | 11.5
COc1cccc(N2[C@@H](CC(=O)O)c3cc(C(F)(F)F)ccc3S2(=O)=O)c1 | 5.8 | -1.1% | 0.7 | -4.1 | -0.2 | -16.3
FC(F)(F)c1cc(-c2ccco2)nc(-n2cnc3ccccc32)n1 | 5.4 | ? | 1.0 | -4.5 | 1.5 | 2.4
CCn1c(=O)c2sccc2n2c(CCCC(=O)Nc3ccc(OC)c(OC)c3)nnc12 | nt | 0.2% | -0.9 | nt | nt | 10.1
Cc1ccc(N(CC(=O)NCc2ccco2)C(=O)CCC(=O)Nc2ccccn2)cc1C | 9.6 | -1.3% | 0.0 | -3.7 | 0.0 | 40.6
CCN(CC)CCNC(=O)c1ccc(NC(=O)c2ccc(-n3cncn3)c([N+](=O)[O-])c2)cc1 | 0.0 | -0.3% | 0.0 | -4.3 | 14.4 | -25.3
COC(=O)c1c(NC(=O)c2ccccc2F)sc2c1C(C(=O)OC)CC2 (stereo not given) | nt | 5.6% | nt | 1.2 | -0.7 | nt
COc1cc(C(=O)NCCC(=O)N2CCN(C)CC2)cc(OC)c1OC | 9.9 | 0.3% | -0.1 | -4.8 | 4.1 | -11.6
O=C(O)C1CCN(C(=O)c2ccc(Cl)cc2)CC1 | 1.0 | 3.0% | 1.1 | 0.5 | 3.5 | -23.2

An excerpt of these results, with values under each structure:
Order of results – CtBP-E1A inh, PINK1 expr mod, TRPML1 ag, D2 ag, Six1-Eya2 blk, TRPML1 blocker
- COC(=O)c1c(NC(=O)c2ccccc2F)sc2c1C(C(=O)OC)CC2 (stereo not given)
  nt, 5.6%, nt, 1.2, -0.7, nt
- O=C(CSc1nnc(Cc2ccccc2)c(=O)[nH]1)Nc1ccccc1
  7.3, -0.6%, -0.6, -2.7, 2.7, -6.2
- O=C(O)C1CCN(C(=O)c2ccc(Cl)cc2)CC1
  1.0, 3.0%, 1.1, 0.5, 3.5, -23.2

Additional records.
SMILES | CtBP-E1A inh | PINK1 expr mod | TRPML1 ag | D2 ag | Six1-Eya2 blk | TRPML1 blocker
CCn1nnc2cc(C(=O)Nc3cccc(C)c3C)ccc21 | nt | 13.4% | 0.6 | nt | nt | -3.5
CC(=O)c1cccc(NC(=S)NC(=O)c2ccc(Br)cc2)c1 | 1.6 | ? | 2.2 | 2.5 | -0.4 | -15.5
CN(/N=C/c1ccc(-c2ccc([N+](=O)[O-])cc2)o1)c1ccccc1 | -4.5 | ? | 20.6 | -0.3 | -16.2 | -0.5
CC(=O)OCn1nnc2ccccc2c1=O | 3.7 | 5.7% | -0.6 | -3.0 | 0.0 | -7.0
O=C(CSc1nnc(CNC(=O)c2ccco2)o1)Nc1cccc(Cl)c1 | 6.7 | -0.7% | -0.5 | -1.1 | 1.7 | -8.9
O=C(O)c1sccc1Oc1ccc(F)cc1[N+](=O)[O-] | -13.2 | -0.5% | -0.1 | 1.2 | 2.3 | 3.5
COC(=O)c1ccccc1NC(=O)Cn1c(=O)n(-c2ccc(C)cc2)c(=O)c2ccccc21 | nt | 5.6% | 0.1 | nt | nt | 34.5
COc1ccccc1/C=C/C(=O)c1ccccc1 | nt | -1.5% | 1.1 | 1.5 | 1.9 | -0.5
COc1cc(C(=O)Nc2nnc(CC(C)C)s2)c([N+](=O)[O-])cc1OC | nt | 0.6% | 0.2 | -7.2 | 6.6 | -6.0
COc1ccc(-c2cn3nc(N4CCCC(C(=O)NCc5ccccc5C)C4)sc3n2)cc1 (stereo not given) | nt | -1.0% | 1.9 | nt | nt | -9.7
COC(=O)Nc1ccc(S(=O)(=O)N2CCCC(C(=O)N3CCCCC3)C2)cc1 (stereo not given) | 0.6 | -0.4% | 2.3 | -1.6 | -0.8 | 3.0
COc1cc(/C=N/NC(=O)Nc2ccccc2)ccc1OCCOc1ccccc1C | 2.9 | 21.1%[38.3 µM] | -0.3 | 13.6 | 2.1 | 7.2
COC(=O)C1C(c2ccc(OC)cc2)C(C(=O)OC)S(=O)(=O)C(CCN2CCCCC2)S1(=O)=O (stereo not given) | -20.3 | -0.2% | 0.8 | -9.9 | 0.4 | 20.1
COc1ccccc1-c1c(C(F)(F)F)oc2cc(OC(=O)c3cccc([N+](=O)[O-])c3C)ccc2c1=O | 6.4 | 4.2%[38.3 µM] | 0.2 | -2.7 | 5.8 | 16.9
CCOC(=O)C(=O)N1CCN(c2ccccc2OC)CC1 | 7.5 | 0.4% | -0.1 | 1.9 | 0.0 | 5.5
CCN(c1ccccc1)S(=O)(=O)c1ccc(C(=O)OC(C)C(=O)NCCC2=CCCCC2)cc1 (stereo not given) | -1.7 | 4.9% | -0.2 | -3.6 | 0.8 | -1.3
O=C(NNC(=O)c1cc2cc(OC(F)(F)F)ccc2[nH]1)c1ccc(Cl)cc1 | 5.0 | 0.6% | 1.0 | -1.3 | -1.1 | 8.1
O=C(Cc1ccccc1)NNc1ccc2ccccc2c1 | nt | 6.1% | 2.3 | -10.4 | -8.4 | -20.4
Cc1ccc(NC(=O)CCN2C(=O)NC3(CCCC3)C2=O)cc1S(=O)(=O)N1CCOCC1 | 0.2 | -0.1% | 0.1 | -3.9 | -2.3 | -7.6
Cc1cc(C)c(C#N)c(Nc2ccccc2F)n1 | nt | 1.8% | -1.5 | 3.4 | 0.1 | 25.5
CCOC(=O)CC(NC(=O)c1cccs1)c1ccc(OCC)cc1 (stereo not given) | -1.0 | 0.1% | -0.3 | -1.1 | 6.6 | 6.4
CCC(=O)N1CCc2cc(Br)cc(S(=O)(=O)CCC(=O)NCc3ccc(F)cc3)c21 | nt | 0.3% | -0.8 | nt | nt | -2.0
OC[C@@H]1[C@@H](c2ccc(Cl)cc2)C(c2ccccc2)=NN1c1ccccc1 | 67.8 | -0.5% | -1.2 | -0.2 | 50.7 | -5.9
Cc1cc(OCC(=O)c2ccc(C(F)(F)F)cc2)n2cnnc2n1 | -1.8 | 1.9% | -0.4 | -0.9 | 12.9 | -6.2
COc1ccc(OCC(=O)Nc2ccncc2)cc1 | 0.0 | -1.2% | 0.8 | -3.0 | -3.0 | -9.1
CCOc1ccc(C(C)C)cc1S(=O)(=O)N1CCOCC1 | 3.7 | -0.4% | 1.6 | 2.9 | 1.7 | 2.1
COc1ccccc1NC(=O)C(Cc1ccccc1)NS(=O)(=O)c1ccc2c(c1)CCN2C(C)=O (stereo not given) | nt | 1.3% | -0.4 | nt | nt | -9.3
COc1ccccc1NC(=O)CSc1nnc(C)s1 | -9.3 | -1.8% | 0.7 | -0.1 | -8.0 | 31.4
CSc1nnc(N2C(=O)C(O)=C(C(=O)c3ccc(C)o3)C2c2ccc(C)cc2)s1 (stereo not given) | nt | 0.1% | 4.0 | -4.2 | 9.3 | 18.8
CC12CC(O)C3c4ccc(O)cc4CCC3C1CC/C2=N\O (stereo not given) | -3.6 | 4.8% | 0.9 | -2.3 | 4.3 | 3.9
Cc1cc2c(c(C)c1Br)C(c1ccc3c(c1)OCO3)CC(=O)O2 (stereo not given) | -6.6 | 3.4% | 0.6 | 1.1 | -6.6 | 6.0
O=C(CN1C(=O)CCC1=O)Nc1nc2c(F)cc(F)cc2s1 | -1.3 | 1.3% | 0.2 | -2.0 | 0.7 | 16.5
Cc1cc(C)c(S(=O)(=O)O)c(C)n1 | 7.2 | 6.5% | -1.0 | -3.3 | 5.0 | 8.0
CCC1(c2ccc(F)cc2)NC(=O)N(CC(=O)N2c3ccccc3NC(=O)C2(C)C)C1=O (stereo not given) | -0.3 | -2.0% | 1.0 | -6.5 | -14.4 | -23.1
COc1cc(C(=O)Nc2cccc(OCc3cc(=O)n4c(C)csc4n3)c2)cc(OC)c1OC | nt | 3.1% | -0.7 | nt | nt | 10.3
COc1ccc(CNC(=O)c2cc3cccc4c3n2CC(C)S4)cc1OC (stereo not given) | nt | -1.0% | 2.2 | nt | nt | -15.3
CC(=O)c1ccc(OCC(=O)OCc2cc(-c3ccco3)on2)cc1 | -2.7 | -0.6% | 5.8 | -6.2 | -2.1 | -4.6
COc1ccc(F)cc1S(=O)(=O)N1CCC2(CC1)OCCN2S(=O)(=O)c1cccs1 | -1.6 | -0.4% | 0.0 | 7.4 | -1.6 | -1.1
O=C(Nc1ccc(C(F)(F)F)cc1)c1cc(-c2cccnc2)nc2ccc(Br)cc12 | -0.3 | 25.4%[38.3 µM] | 0.6 | 2.3 | 2.3 | 20.9
CCCCNC(=O)CSc1nc(Cc2ccccc2)nc2ccccc12 | -9.2 | 2.5% | 1.9 | -1.8 | -19.4 | 43.2
O=C(CN1CCC(NC(=O)Nc2ccccc2)CC1)Nc1ccccc1F | 12.4 | -0.1% | 9.4 | 1.3 | -3.5 | 26.6
Cc1ccc(C(=O)Nc2cc(C)c(OCC(=O)N3CCOCC3)c(C)c2)cc1 | -1.1 | -1.3% | 2.7 | -1.5 | 0.4 | 12.0
Cc1cccc(C)c1OCC(=O)NCC1COc2ccccc2O1 (stereo not given) | nt | -1.3% | 0.5 | -2.3 | -1.2 | -17.6
CN(C)c1ccc(C(=N)Cc2ccc3ccccc3n2)cc1 | 1.6 | 4.0% | 0.9 | 0.6 | 0.4 | -22.3
CCC(C)NC(=O)Cn1ncc2c(C)n(Cc3ccc(F)cc3)c(C)c2c1=O (stereo not given) | nt | 1.2% | -0.1 | nt | nt | -27.9
CCN1CC(CN(C)Cc2nc(-c3ccc(C(F)(F)F)cc3)no2)CC1=O (stereo not given) | nt | -0.2% | 0.5 | -6.5 | -7.0 | 15.9
COc1ccc(C2=NC(c3ccccc3)=Nc3ccc(C)cc3N2)cc1 | nt | -1.7% | 1.3 | nt | nt | -13.1
CSCCC(NC(=O)c1cc(CC(C)C)oc1C)C(=O)O (stereo not given) | 1.1 | -0.2% | 0.1 | -0.9 | -1.3 | -8.1
O=C(CN1C(=O)c2cccc3cccc(c23)C1=O)N1CCN(c2ccccn2)CC1 | -21.4 | 7.4% | 3.1 | -0.9 | -0.1 | -3.2
O=C(O)c1ccc(NCCC2=CCCCC2)c([N+](=O)[O-])c1 | -1.5 | -1.2% | 0.2 | -4.7 | -8.7 | -1.7
